# High-throughput results (PubChem BioAssay)
# Apoferritin bind – binds horse apoferritin like a general anesthetic; P02791; apoferritin/1-aminoanthracene competitive binding, fluorescence; Potency, µM (doses to about 77.5 µM), without a hit: at the top dose activity change, negative = displacement, most hits filed as inhibitors; actives 0.074% (n = 350,000); further: potency means the concentration at half of the fitted maximal effect; on the % scale 0 is the no-effect control and ±100 the full control effect; nearly all actives have a fitted effect of over 20% in size
# Target sequence (P02791 2-175 limits assumed): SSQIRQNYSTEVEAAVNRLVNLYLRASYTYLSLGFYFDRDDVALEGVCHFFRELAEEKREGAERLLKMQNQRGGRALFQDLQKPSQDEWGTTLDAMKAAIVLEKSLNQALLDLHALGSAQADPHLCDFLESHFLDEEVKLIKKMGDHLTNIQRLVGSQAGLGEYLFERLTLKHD
#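 Steps: apoferritin (10 uM) was premixed with half-saturated 1-AMA in PBS, compounds were pin-transferred, plates stood 10 min at room temperature, fluorescence was read at 380/535 nm, and curves were fitted with a Hill equation.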
# RXFP1 antag – antagonists of human relaxin receptor RXFP1; HEK293-RXFP1, relaxin-stimulated cAMP HTRF, 30 min; active compounds read low; activity change, negative = inhibition, % at 57.5 µM; actives 0.59% (n = 350,000); AID 1259400;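 active means activity change of -60% or lower, but not beyond a set lower limit; inconclusive means change between -60% and -40%, or beyond the set limit; inactive means change above -40%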; further: on the % scale 0 is the no-effect control and ±100 the full control effect
# TRHR ag – agonists of human TRH receptor | TRHR cells, calcium flux fluo-8, FDSS agonist mode | activation, % at 2 µM | actives 0.18% (n = 360,000) | AID 493084; in the data active means activation above about 30%; further: 0% is about no effect
#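 Fluo-8-loaded TRHR cells; 10 s baseline, compound added, kinetic Ca2+ fluorescence read 1/s, agonist mode.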
# TRHR PAM – allosterically enhances the human TRH receptor. AID 493056. actives 0.66% (n = 360,000). P34981. enhancement, % at 2 µM. TRHR cells, fluo-8 calcium fluorescence, EC20 TRH enhancement; in the data active means enhancement above about 30%; further: 0% is about no effect
#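 Enhancer read-out: after compound pinning and an initial kinetic agonist-mode read, an EC20 of TRH (10 nM final) was injected and fluo-8 calcium signal (Ex 480/Em 530) followed at 1 s/cycle for 100 cycles in TRHR-expressing cells.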
# RXFP1 agonist – agonists of human relaxin receptor RXFP1 | Q9HBX9 | HEK293T-RXFP1 cAMP TR-FRET, 30 min; response scale: percent of porcine relaxin response, buffer zero | Potency, µM (series often up to 57.5 µM), inactives show at the highest dose activation, usual class: activators | actives 0.3% (n = 370,000); further: potency means the concentration at half of the fitted maximal effect; on the % scale 0 is the no-effect control and ±100 the full control effect; nearly all actives have a fitted effect of over 60% in size; many of its hits are not listed in these tables
#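 HEK293T cells stably expressing RXFP1 were pretreated with the PDE4 inhibitor Ro 20174, exposed to compounds for 30 min at 37C, lysed, and cAMP was read by TR-FRET. Data normalized to buffer (basal) and 29 nM porcine relaxin (100%).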
# Starred values were filed as active, the others as inactive; ? = inconclusive; . = no result given; & = joins results of further samples; [ ] = remark or other dose. Unless noted, the call rests on the fitted dose curve; in most records, active means well fitted curve in the direction sought with a large enough effect; inconclusive means small, poorly fitted or top-dose-only effect, or another doubt; inactive means no such curve, though single readings can be large; an effect the other way counts as inactive or inconclusive.
item	Structure	Apoferritin bind	RXFP1 antag	TRHR ag	TRHR PAM	RXFP1 agonist
1	COC(=O)Nc1sc(C)nc1-c1ccccc1	-9.4%	-1.0	-0.1	-4.3	0.4%
2	CN1CCN(C2=Nc3cc(Cl)ccc3Nc3ccccc32)CC1	-4.9%	-7.4	2.2	-0.6	0.7%
3	CCCN1C[C@H](CSC)C[C@H]2c3cccc4[nH]cc(c34)C[C@@H]21	-11.0%[29.3 µM]	.	.	.	.
4	CCCCc1oc2ccccc2c1C(=O)c1cc(I)c(OCCN(CC)CC)c(I)c1	?	-22.6	0.1	-5.3	7.1%
5	CN1CCN2c3ccccc3Cc3ccccc3C2C1 (stereo unspecified)	5.5%&-1.9%	-17.0	-0.4	-3.3	-1.6%
6	O=C(CCCN1CCC(O)(c2ccc(Cl)cc2)CC1)c1ccc(F)cc1	-1.4%&-14.0%	8.4	1.8&0.7	-4.2&-2.3	-2.4%&3.0%
7	O=C1CC2(CCCC2)CC(=O)N1CCCCN1CCN(c2ncccn2)CC1	-0.5%	14.1	-1.0	5.7	2.3%
8	O=C(O)COCCN1CCN(C(c2ccccc2)c2ccc(Cl)cc2)CC1 (stereo unspecified)	-6.2%&3.9%&-9.5%	-17.1&-2.4	-0.1	-0.8	3.0%
9	CNCC[C@H](Oc1ccc(C(F)(F)F)cc1)c1ccccc1	-0.7%[29.3 µM]	.	-0.2	8.5	-0.2%
10	CC(C)NC[C@@H](O)COc1ccc(CC(N)=O)cc1	.	-9.4	0.3	4.9	-0.2%

# Look-ups from the entries so far:
# Apoferritin bind with no. 8 → -6.2%&3.9%&-9.5%
# TRHR ag with no. 10 → 0.3
# Apoferritin bind with no. 3 → -11.0%[29.3 µM]
# TRHR PAM with no. 7 → 5.7
# RXFP1 antag with no. 1 → -1.0

# Complete entries as entered above:
# CNCC[C@H](Oc1ccc(C(F)(F)F)cc1)c1ccccc1 as listed: Apoferritin bind = -0.7%[29.3 µM]; RXFP1 antag = .; TRHR ag = -0.2; TRHR PAM = 8.5; RXFP1 agonist = -0.2%
# CN1CCN(C2=Nc3cc(Cl)ccc3Nc3ccccc32)CC1 as listed: Apoferritin bind = -4.9%; RXFP1 antag = -7.4; TRHR ag = 2.2; TRHR PAM = -0.6; RXFP1 agonist = 0.7%
# O=C(O)COCCN1CCN(C(c2ccccc2)c2ccc(Cl)cc2)CC1 (stereo unspecified) as listed: Apoferritin bind = -6.2%&3.9%&-9.5%; RXFP1 antag = -17.1&-2.4; TRHR ag = -0.1; TRHR PAM = -0.8; RXFP1 agonist = 3.0%

# Molecules above that contain a carbonyl joined to an NH by a bond outside any ring (2):
item	Structure	Apoferritin bind	RXFP1 antag	TRHR ag	TRHR PAM	RXFP1 agonist
1	COC(=O)Nc1sc(C)nc1-c1ccccc1	-9.4%	-1.0	-0.1	-4.3	0.4%
10	CC(C)NC[C@@H](O)COc1ccc(CC(N)=O)cc1	.	-9.4	0.3	4.9	-0.2%

# The list is partial (hit frequency here may not be typical).
